From PubChem BioAssay
GIV Gai3 FP – blocks GIV peptide binding to rat Galpha-i3. P08753. Galpha-i3/FITC-GIV peptide fluorescence polarization, 90 min; active compounds read low; scaled: aluminum fluoride 0%, vehicle 100%. percent of control (FP), % (test concentration not listed). 210,000 compounds, 0.42% hits. AID 1224905;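 active = replicate mean at 85% of control or lower, very high polarization wells dropped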;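 also: lower values mean more displacement of the GIV peptide from Galpha-i3; wells of about 15 µL received 100 nL stock; the first replicate is given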
Target sequence (P08753 whole entry, looked up): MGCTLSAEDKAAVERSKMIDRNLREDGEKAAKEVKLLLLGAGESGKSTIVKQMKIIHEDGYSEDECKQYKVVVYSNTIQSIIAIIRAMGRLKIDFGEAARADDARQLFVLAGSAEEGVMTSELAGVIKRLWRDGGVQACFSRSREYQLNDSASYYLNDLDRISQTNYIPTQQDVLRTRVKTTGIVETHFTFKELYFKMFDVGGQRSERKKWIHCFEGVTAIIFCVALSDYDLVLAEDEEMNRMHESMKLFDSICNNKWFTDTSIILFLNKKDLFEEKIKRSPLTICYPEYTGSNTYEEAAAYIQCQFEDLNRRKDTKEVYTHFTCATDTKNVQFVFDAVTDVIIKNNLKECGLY
Numbers without * were called inactive. This is a subset; count on the stated rates, not on these rows.

Preview:
SMILES	GIV Gai3 FP
CCc1onc(C)c1C1CCCN1C(=O)NC(C)C (stereo not drawn)	99.1
O=C(CN1C(=O)CN(C(=O)NCc2ccccc2)c2ccccc21)N1CCN(c2ccccc2)CC1	101.9
O=C(CN1CCCCC1)NCC1(c2ccccc2)CCCC1	107.0
Brc1ccc2nc(N3CCNCC3)nc(-c3ccccc3)c2c1	103.0

The whole of this part, repeating the preview:
SMILES	GIV Gai3 FP
CCc1onc(C)c1C1CCCN1C(=O)NC(C)C (stereo not drawn)	99.1
O=C(CN1C(=O)CN(C(=O)NCc2ccccc2)c2ccccc21)N1CCN(c2ccccc2)CC1	101.9
O=C(CN1CCCCC1)NCC1(c2ccccc2)CCCC1	107.0
Brc1ccc2nc(N3CCNCC3)nc(-c3ccccc3)c2c1	103.0
Cc1ccc(NC(=O)C(C)Oc2ccc(-c3cnc4ccccc4n3)cc2)cc1 (stereo not drawn)	104.4
CC(C)(C)n1nc2c(c1NC(=O)c1ccc(S(=O)(=O)N3CCCCC3)cc1)CS(=O)(=O)C2	112.9
C=CCNc1ncnc2c1c(-c1ccccc1)cn2-c1cccc(Cl)c1	111.4
O=C(c1ccc2c(=O)n(CCc3c[nH]c4ccccc34)c(=S)[nH]c2c1)N1CCN(c2ccccc2)CC1	104.1
CCc1ccccc1NC(=O)CSC1=C(C#N)C(c2ccc3c(c2)OCO3)C2=C(CCCC2=O)N1 (stereo not drawn)	121.3
O=C(NCCCN1CCOCC1)c1cc2nc(-c3ccc(Cl)cc3)cc(C(F)(F)F)n2n1	115.4
COc1ccccc1/C=C1\N=C(c2ccc(OC)c(OC)c2)N(c2ccc(Br)c(C)c2)C1=O	108.3
COc1ccc(N2CCN(CCCNC(=O)CCCn3c(=S)[nH]c4ccc(Br)cc4c3=O)CC2)cc1	111.2
O=C(NCCCN1CCOCC1)c1cc2nc3c(c(C(F)(F)F)n2n1)CCc1ccccc1-3	113.8
CCCN1C(=O)COc2ccc(-c3noc(C(C)Oc4cccc(Cl)c4)n3)cc21 (stereo not drawn)	99.0
O=[N+]([O-])c1cccc(C2(O)C[N+]3=C(CCCCC3)N2c2ccccc2)c1 (stereo not drawn)	114.5
COc1ccccc1NC(=O)c1c(NC(=O)c2ccccc2Cl)sc2c1CCCCC2	109.5
CCCS(=O)(=O)c1c(S(=O)(=O)CCC)c2cnccn2c1C(=O)c1ccc(Br)cc1	111.5
CCCCCOc1ccc(N2C(=O)/C(=C/c3ccc(OC)c(OC)c3)N=C2c2ccc(Cl)cc2)cc1	107.9
Brc1ccc2c(c1)c(-c1ccccc1)cc1nnc(-c3ccccc3)n12	109.2
CC(C)Cc1csc(-c2csc(S(=O)(=O)NCc3ccc(Cl)cc3)c2)n1	102.3
N#CC1C(c2ccc3ccccc3n2)=CN(Cc2ccccc2)c2ccccc21 (stereo not drawn)	113.7
COc1ccc(CN2CC(C(=O)NCCCN3CCC(Cc4ccccc4)CC3)CC2=O)cc1 (stereo not drawn)	106.8
CCCCn1c(=O)nc2n(-c3ccc([N+](=O)[O-])cc3)c3ccccc3cc-2c1=O	105.4
O=C(Nc1ccc2c(c1)OCCO2)c1nc2nc(-c3ccc(F)cc3)cc(C(F)(F)F)n2n1	107.5
COc1ccc(Nc2nc(C)nc3sc4c(c23)CCCC4)c(OC)c1	110.9
CCOC(=O)CC(NC(=O)Nc1c(-c2ccncc2)[nH]c2ccc(F)cc12)c1ccccc1 (stereo not drawn)	106.3
CC1(C)CC2(CC(C)(C)N1)OC(=O)N(CCN1C(=O)OC3(CC(C)(C)NC(C)(C)C3)C1(C)O)C2(C)O (stereo not drawn)	107.1
COc1ccc(N2C(C(C)=O)=NN(c3ccccc3)C2c2cccc(OCc3ccc(Cl)cc3)c2)cc1 (stereo not drawn)	112.2
COc1ccc(CNS(=O)(=O)c2cc(-c3cc(C(F)(F)F)on3)sc2C)cc1	95.8
COc1cc(-n2c(C)nc3cc(C(=O)NCCC4=CCCCC4)ccc32)cc(OC)c1OC	102.1
CCOC(=O)c1c(NC(=O)CSc2nnc(CNC(=O)c3ccco3)n2CCc2ccccc2)sc2c1CCCC2	104.5
O=C(NCc1c(-c2ccc(F)cc2)nc2n1CCS2)c1cncc(Br)c1	97.0
COC(=O)C1=C(N)N(c2ccc(S(N)(=O)=O)cc2)C2=C(C(=O)CCC2)C1c1ccc([N+](=O)[O-])cc1 (stereo not drawn)	100.6
CN1C(=O)C2(OCC(C)(c3ccccc3)CO2)c2ccccc21 (stereo not drawn)	104.7
CCOc1ccc(NC(=O)CSc2nc3[nH]ncc3c(=O)n2-c2cccc(C(F)(F)F)c2)cc1	106.8
CCCn1cnc2sc(C(=O)N3CCC4(CC3)OCCO4)c(C)c2c1=O	111.2
NC(=O)C1CCN(C(=O)c2ccc3c(=O)n(-c4ccccc4)c(SCc4ccc(Cl)cc4)nc3c2)CC1	107.1
CCOC(=O)c1[nH]c(C)c(CN(C2CCCCC2)S(=O)(=O)c2c(C)nn(C)c2C)c1C	102.2
Cc1nn(-c2ccc3nnc(C)n3n2)c2c1C(c1ccc(OC(C)C)cc1)CC(=O)N2 (stereo not drawn)	102.6
O=C(CC1CCN(C(=O)c2cc3ccccc3[nH]2)CC1)NCc1ccccc1	100.0
COc1ccc(N2C(=O)/C(=C/c3ccc(Cl)cc3)C=C2c2ccccc2)cc1	82.5*
COc1ccc(S(=O)(=O)NCCc2cn3c(C)csc3n2)cc1C	99.0
CCOC(=O)C1=C(N)OC2=C(C(=O)CCC2)C1c1ccccc1 (stereo not drawn)	110.4
CC1CCN(S(=O)(=O)c2ccc(CNC(=O)c3ccc(Br)o3)s2)CC1	105.9
Cc1cc(C)c(C2=NON3N(C(=O)c4ccc(C(=O)c5ccccc5)cc4)c4ccccc4N23)c(C)c1	105.3

Entries shown so far that have an NH in an aromatic ring (six):
SMILES	GIV Gai3 FP
O=C(c1ccc2c(=O)n(CCc3c[nH]c4ccccc34)c(=S)[nH]c2c1)N1CCN(c2ccccc2)CC1	104.1
COc1ccc(N2CCN(CCCNC(=O)CCCn3c(=S)[nH]c4ccc(Br)cc4c3=O)CC2)cc1	111.2
CCOC(=O)CC(NC(=O)Nc1c(-c2ccncc2)[nH]c2ccc(F)cc12)c1ccccc1 (stereo not drawn)	106.3
CCOc1ccc(NC(=O)CSc2nc3[nH]ncc3c(=O)n2-c2cccc(C(F)(F)F)c2)cc1	106.8
CCOC(=O)c1[nH]c(C)c(CN(C2CCCCC2)S(=O)(=O)c2c(C)nn(C)c2C)c1C	102.2
O=C(CC1CCN(C(=O)c2cc3ccccc3[nH]2)CC1)NCc1ccccc1	100.0

Further results:
SMILES	GIV Gai3 FP
CCc1cccc(-n2nnnc2N2CCN(C(=O)Nc3ccc(C)c(F)c3)CC2)c1	106.7
COc1ccc(-c2nc(-c3ccccc3)c(-c3ccc(Cl)cc3)[nH]2)c(OC)c1	128.2
Cc1[nH]c(C)c(S(=O)(=O)NCc2ccco2)c1-c1nnc(C2CCC2)o1	106.5
Brc1ccc(C2N(Cc3ccccc3)CCN2Cc2ccccc2)s1	102.7
Cc1cc(C2C(C#N)=C(N)N(c3ccccc3C(F)(F)F)C3=C2C(=O)CCC3)c(C)s1 (stereo not drawn)	102.0
O=C(O)c1cc(-n2c(/C=C/c3ccc([N+](=O)[O-])cc3)nc3ccccc3c2=O)ccc1Cl	111.4
COc1ccc(C2(c3nc(-c4ccc5c(c4)ncn5CCC(=O)N4CCCC4)no3)CC2)cc1	99.9
Cc1cccn2c(=O)cc(COc3ccccc3NC(=O)Nc3ccc(Cl)cc3)nc12	104.8
CCCCCn1c2ccccc2c2nc3cc(F)ccc3nc21	108.0
OCCNc1nc(Nc2ccc(Cl)cc2)c2cnn(-c3ccccc3)c2n1	107.6
COc1cccc(C2=NC3(CCNCC3)NC(c3cc(Br)ccc3O)C2)c1 (stereo not drawn)	102.6
Cc1nc(CN2C(=O)COc3ccc(S(=O)(=O)NCCC4=CCCCC4)cc32)no1	106.2
CCc1cc2c(NCc3ccc4c(c3)OCO4)ncnc2s1	99.4
O=S(=O)(c1cc(-c2ccno2)cs1)N1CCN(c2ncccn2)CC1	102.4
Cc1ccsc1C1Nc2ccc3ncccc3c2C2=C1C(=O)CC(C)(C)C2 (stereo not drawn)	105.6
CCOC(=O)c1c(NC(=O)Cn2nc([N+](=O)[O-])c(Br)c2C)sc(C)c1C	108.7
CCC1(OC)CC(c2ccccc2)NC(=S)N1 (stereo not drawn)	103.5
O=C(CCCn1c(SCC(=O)Nc2cccc(C(F)(F)F)c2)nc2ccccc2c1=O)NCC1CCCO1 (stereo not drawn)	104.7
CCCn1c(=O)sc2cc(S(=O)(=O)N3CCN(C(=O)c4sc(C)nc4C)CC3)ccc21	102.2
CCc1ccccc1-n1c(SCC(=O)Nc2ccc(Br)cc2)nc2n[nH]c(C)c2c1=N	101.1
COC(=O)c1cc(C(=O)OC)cc(N2C(=O)CSC2c2ccccc2Br)c1 (stereo not drawn)	108.7
Cc1ccc(C2(c3ccc(C)cc3)CC2C(=O)Nc2ccccc2F)cc1 (stereo not drawn)	116.3
O=C1C(=O)N(c2ccc(Br)cc2)C(c2ccc(Br)cc2)/C1=C(/O)c1ccc(Br)cc1 (stereo not drawn)	106.2
CC(=O)OCCCN1/C(=C\C=C\c2n(CCCOC(C)=O)c3cc(Cl)c(Cl)cc3[n+]2C)N(C)c2cc(Cl)c(Cl)cc21	59.7*
C=CCN1CCN(c2ccc3nnc(CCc4nc(-c5ccc(OC)cc5)no4)n3n2)CC1	102.4
O=C(CSc1nnc(NC(=O)c2ccc(S(=O)(=O)N3CCOCC3)cc2)s1)Nc1nccs1	108.9
OC(CN1CCCCCC1)Cn1c2ccccc2c2ccccc21 (stereo not drawn)	112.2
COCCN=C1Nc2cc(C)c(C)cc2NC12CCCCCC2	104.3
CCOC(=O)C(=O)N1c2cc(C)c(C)cc2-c2c(ssc2=S)C1(C)C	116.7
Cc1nc(-c2csc(S(=O)(=O)NCc3ccc(F)cc3Cl)c2)sc1C	105.7
CCCc1[nH]n(-c2ccc(F)cc2)c(=O)c1C=NCCN1CCN(C(=S)NCC)CC1	112.7
CCSc1nc2ccc(NS(=O)(=O)c3cc(C)ccc3C)cc2s1	101.8
CC(C)(C)C1(O)CC(C(F)(F)F)=NN1C(=O)c1cccc(Cl)c1 (stereo not drawn)	100.2
CCOC(=O)c1sc2ncnc(Nc3cc(F)ccc3C)c2c1C	107.4
COc1ccc(S(=O)(=O)NC2CCN(C(=O)c3cccc(OC)c3)CC2)cc1	104.9
COc1ccc(Nc2nc3nonc3n3cnnc23)cc1	116.2
O=C(COc1ccccc1)N1CCN(C(=O)c2cc3cc(Cl)ccc3[nH]2)CC1	100.6
O=C(NNc1nc2c(c(=O)n1Cc1ccccc1)C1(CCCC1)Cc1ccccc1-2)c1ccccc1	111.7
O=C(NCc1cccnc1)c1nc(Cn2c(=O)oc3ccccc32)no1	122.1
COC(=O)c1ccc2c(c1)nc(SCC#N)n1c3ccccc3nc21	103.5
Cc1ncc(-c2ccc(S(=O)(=O)N3CCCCC3)s2)o1	102.8
COc1ccc(Cl)cc1S(=O)(=O)N1CCCN(S(=O)(=O)c2cc(Cl)ccc2OC)CC1	107.9
Cc1noc(C)c1S(=O)(=O)Nc1ccc(C2(C(=O)NC(C)C)CC2)cc1	105.6
CCc1ccc(C(C)NC(=O)C2(c3ccc(NC(=O)NC)cc3)CCC2)cc1 (stereo not drawn)	98.2
CC(=O)C1=C(O)C(=O)N(c2ccc(O)cc2)C1c1ccc2c(c1)OCO2 (stereo not drawn)	126.4
COc1ccc(C(=O)CSc2n[nH]c(-c3ccco3)n2)cc1	98.9
O=C(CSc1nc2[nH]ncc2c(=O)n1-c1cccc(C(F)(F)F)c1)NCc1cccc(Cl)c1	110.8
N#CC1(C#N)[C@H](c2ccc(F)cc2)[C@@H](C(=O)c2ccccc2)N2c3ccccc3C=C[C@@H]21	118.5
CCOc1cccc2cc(C(=O)Nc3ccc(OC)c(OC)c3)c(=Nc3ccc(C(=O)O)cc3)oc12	104.1
COc1ccc(Oc2ccc(-c3cccc(C(=O)NC4CC4)c3)nn2)cc1	102.8
CC1=C(C#Cc2ccccc2)c2ccccc2OC1(NCc1ccccc1)c1ccccc1 (stereo not drawn)	106.2
COc1ccccc1Nc1nc(N2CCOCC2)c2ccccc2n1	98.3
Cn1c(SCc2c[nH]c3cc([N+](=O)[O-])ccc23)nc2sc3c(c2c1=O)CCCC3	102.5
CCOC(=O)CNc1nc(N2CCOCC2)nc(N2CCOCC2)n1	104.8
COc1ccc(C(=O)NCc2nnc(SCC(=O)N3N=C(c4cccs4)CC3c3ccc(C)cc3)n2C)cc1 (stereo not drawn)	106.1
Cc1ccc(-c2noc3ncnc(N4CCC(C(=O)NC5CCCC5)CC4)c23)cc1	101.8
O=C1/C(=C\c2cn(-c3ccccc3)nc2-c2cc3ccccc3oc2=O)NC(=S)N1c1ccccc1	99.0
COc1ccccc1C1Nc2c(C)cc(C)cc2[C@H]2OCCC[C@@H]12 (stereo partly drawn)	97.1
CCOc1ccccc1CNC(=O)CN1CCN(C(=O)Nc2ccc(Cl)cc2)CC1=O	102.1
Cc1ccc(N2C(=O)C(=O)/C(=C(/O)c3ccccc3)C2c2ccccc2)cc1 (stereo not drawn)	104.3
Later entries:
SMILES	GIV Gai3 FP
O=C1/C(=C/c2ccc(-c3cc(Cl)ccc3Cl)o2)C=C(c2ccccc2)N1c1ccc(F)cc1	112.2
Clc1cccc(-c2noc3ncnc(N4CCC(N5CCCCC5)CC4)c23)c1	109.4
Cc1ccc2c(c1)c1c3n2CCN(Cc2ccccc2)C3CCC1 (stereo not drawn)	107.1
O=C(Nc1ccc2c(c1)OCCO2)c1nc(-n2cnnc2)ccc1Br	104.7
O=S(=O)(NCCc1n[nH]c(Cc2ccccc2)n1)c1ccc(F)cc1F	104.4
Cn1cnc2cc(-c3noc(C4CCC4)n3)ccc21	97.9
